Bioassay records deposited in PubChem by several laboratories.
RGS16-Gao – modulates binding between human RGS16 and Galphao | O15492+P09471 | bead-based flow cytometry RGS16-Galphao binding, fluorescence; actives lie on both sides | binding response (% of control), % at 10 µM | 0.38% of 220,000 active;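 active = below 25% or above 175%, edge rows of some plates excepted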;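 also: Galphao activated by GDP with aluminum fluoride before binding; 100% = wells without compound and 0% = beads without RGS; some results beyond the cut were filed as inactive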
Target sequence (O15492 whole entry, looked up): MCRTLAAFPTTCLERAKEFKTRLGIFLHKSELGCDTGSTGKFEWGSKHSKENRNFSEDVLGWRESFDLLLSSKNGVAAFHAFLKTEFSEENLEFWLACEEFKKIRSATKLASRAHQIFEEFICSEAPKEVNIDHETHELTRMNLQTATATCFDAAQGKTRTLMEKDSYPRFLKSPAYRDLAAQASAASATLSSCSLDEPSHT
Target sequence (P09471 whole entry, looked up): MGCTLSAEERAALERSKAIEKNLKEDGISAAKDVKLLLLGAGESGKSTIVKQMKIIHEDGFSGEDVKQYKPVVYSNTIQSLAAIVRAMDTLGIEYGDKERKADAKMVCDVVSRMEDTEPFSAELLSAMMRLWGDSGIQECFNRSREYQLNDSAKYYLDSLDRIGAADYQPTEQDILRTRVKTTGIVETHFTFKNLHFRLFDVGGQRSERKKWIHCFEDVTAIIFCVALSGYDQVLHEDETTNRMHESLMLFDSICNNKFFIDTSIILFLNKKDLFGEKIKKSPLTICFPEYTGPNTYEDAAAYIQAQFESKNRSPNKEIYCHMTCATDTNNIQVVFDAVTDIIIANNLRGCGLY
INS promoter inh – TRM-6 insulin promoter activity inhibition; TRM-6 cells (human fetal islet line), insulin promoter-eGFP reporter, imaging; reporter expression induced with tamoxifen; 0.9% of 130,000 active; AID 1273; inhibition, % at 2 µM;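 active = inhibition above the mean plus 3 SD, with well images judged a real hit on visual review, cut at about 60% in these data, passing the limit was not always enough; inconclusive = inhibition over the cutoff but images rejected on review; inactive = inhibition not above the cutoff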
GALR2 ag – GALR2 (human) receptor agonism. GALR2-expressing cells, agonist activation read-out. activation, %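 (tested at 5 µM)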. 0.48% of 140,000 active. AID 803;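 active = above mean plus 3 SD of all compounds, about 5% in these data, not always enough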;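 also: 0% = vehicle buffer wells and 100% = reference agonist at full effect; tested in CHO reporter cells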
Target sequence (O43603 whole entry, looked up): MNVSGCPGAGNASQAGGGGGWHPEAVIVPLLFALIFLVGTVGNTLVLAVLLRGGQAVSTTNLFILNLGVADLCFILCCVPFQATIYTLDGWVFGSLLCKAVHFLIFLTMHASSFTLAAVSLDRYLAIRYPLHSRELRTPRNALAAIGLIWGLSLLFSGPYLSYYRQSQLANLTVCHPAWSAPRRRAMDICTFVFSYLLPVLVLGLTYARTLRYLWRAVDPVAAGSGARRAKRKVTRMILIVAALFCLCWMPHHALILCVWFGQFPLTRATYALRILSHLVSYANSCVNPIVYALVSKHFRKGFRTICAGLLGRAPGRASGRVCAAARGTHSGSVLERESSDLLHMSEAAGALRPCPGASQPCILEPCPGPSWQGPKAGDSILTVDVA
HSV augment – increases HSV replication in cells; HSV replication augmentation in cells, fold increase; maximum fold increase; 0.005% of 220,000 active; AID 1956;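 active = peak rise of 1.5-fold or more in the series; inconclusive = self-fluorescent or not available for retest; tested in PC3 cells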;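 also: first round at 10 µM; read as green reporter fluorescence; hits show the peak of a series up to 25 µM; 1 = signal of infected wells without compound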
PKD1 inh – blocks activity of human protein kinase D1. inhibition, %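 (about 10 µM by stock and volumes)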. PKD1 kinase fluorescence polarization assay. Q15139. 0.056% of 200,000 active;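 active = inhibition of 50% or more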;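 also: controls were vehicle for no effect and a reference inhibitor for full effect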
INS promoter inh cell count – further read-out of INS promoter inh, marked with its call; normalized cell count, %; measured here: cell count, toxicity; reference of the scale not given here;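 cells exposed to compound for 48 h; stained nuclei by imaging scaled within each plate; lower means fewer cells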
HSV augment primary fold – also measured in HSV augment; calls as there; fold increase; compound at 10 µM; measured here: primary screen fold increase 10 uM; tested in PC3 cells;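 GFP signal in the first replicate; 1 = infected wells without compound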
Numbers without * were called inactive; i = inactive; ? = inconclusive; / = no result given.

SMILES | RGS16-Gao | INS promoter inh | INS promoter inh cell count | GALR2 ag | HSV augment | HSV augment primary fold | PKD1 inh
Cc1ccc(NC(=O)c2noc3c2CCC3)cc1C | 95 | / | / | / | i | 0.97 | -10
CCCCOC(=O)C1=C(N)N2C(=O)C(C)SC2=C(C(=O)OCC)C1c1ccc(O)c(OC)c1 (stereo not drawn) | 94 | / | / | / | i | 0.99 | /
Cc1ccc([N+](=O)[O-])cc1N(CC(=O)NCC1CCCO1)S(C)(=O)=O (stereo not drawn) | 101 | / | / | / | i | 1.1 | 9
NC(=NC(=O)c1ccccc1)C1=C(O)CCC1=O | 98 | / | / | 0.5 | i | 0.94 | -4
O=C(Nc1sc2c(c1C(=O)NC1CC1)CCCCCC2)c1ccco1 | 101 | -5 | 198 | -0.9 | i | 0.89 | -8
CC1(C)Cc2ccccc2C(NN=C2CCCC2)=N1 | 104 | / | / | / | i | 0.98 | 1
CC(C)C[C@@H]1NC(=O)[C@H](Cc2ccccc2)N(C)C(=O)[C@H](C)NC(=O)c2ccccc2NC(=O)[C@H](Cc2ccc(O)cc2)N(C)C1=O | 76 | / | / | / | i | 0.76 | /
COC(=O)C1=C(C(=O)OC)[C@@H]2N(Cc3ccccc3)c3ccccc3[C@@]23C[C@@H](C(=O)OC)N(C(C)=O)C3=N1 | 101 | / | / | / | i | 0.73 | /
CC1=CC(C)(C)N(C(=O)C(C)N2C(=O)c3ccccc3C2=O)c2c(C)cc(C)cc21 (stereo not drawn) | 100 | -21 | 95 | -3.3 | / | / | -7
O=C(CN1CCC2(CC1)OCCO2)c1c[nH]c2ccccc12 | 112 | / | / | -1.7 | i | 1.1 | 2
CC1=C(C#N)C(NC(=O)c2ccco2)(C(F)(F)F)C(=O)N1 (stereo not drawn) | 85 | -45 | 106 | -1.2 | i | 0.98 | 4
CCOC(=O)c1ccccc1NC(=O)CN(c1ccccc1OC)S(C)(=O)=O | 103 | -17 | 151 | -0.6 | i | 0.91 | 10
CC1=CC(C)C(C(=O)O)C(C(=O)Nc2cccnc2)C1 (stereo not drawn) | 108 | / | / | / | i | 0.94 | -1
CSc1cccc(NC(=O)c2nnn(Cc3ccccc3)c2N)c1 | 95 | / | / | -0.6 | i | 0.79 | -2
CC[C@H](C)[C@@H](NC(=O)O[C@@H]1C(=O)c2cc(Br)ccc2O[C@H]1c1cccc(OC)c1)C(=O)OC | 99 | 10 | 81 | -1.9 | i | 1.2 | -4
O=C(Nc1ccccc1)C1(c2ccccc2)CC1(Cl)Cl (stereo not drawn) | 99 | -7 | 118 | -2.3 | i | 0.99 | -5
CCOCCCNCc1cc(Br)ccc1OCC | 99 | / | / | / | i | 0.9 | -13
O=C(CSc1nc2c([nH]c3ccccc32)c(=O)n1-c1ccccc1)N1CCOCC1 | 104 | / | / | -1.6 | i | 1 | 3
CCOC(=O)c1sc(-c2ccccc2)cc1NC(=O)CSc1nnnn1C | 183 | / | / | -3.1 | i | 0.94 | -1
COc1cc2nc(/C=C/c3ccc(N(C)C)cc3)sc2cc1SC | 99 | / | / | 5.2* | ? | / | -13
O=C(CNc1cc(S(=O)(=O)N2CCCC2)ccc1OCC(F)(F)F)Nc1cc(Cl)cc(Cl)c1 | 98 | / | / | / | i | 0.97 | -8
COC(=O)c1sc(NC(=S)NC(=O)c2ccccc2)nc1C | 85 | / | / | -0.6 | i | 0.97 | -8
CCC(C)NC(=O)c1ccc(-n2c(=S)[nH]c3ccccc3c2=O)cc1 (stereo not drawn) | 111 | 18 | 173 | / | i | 0.92 | 4
CCCCCc1nc2c(c3c1CCCC3)CCCC2 | 91 | / | / | / | i | 0.88 | /
COCCn1c(CN(Cc2ccccc2)Cc2ccccc2)nc2c1c(=O)n(C)c(=O)n2C | 102 | / | / | 0.4 | i | 0.93 | 4
Next structures follow:
SMILES | RGS16-Gao | INS promoter inh | INS promoter inh cell count | GALR2 ag | HSV augment | HSV augment primary fold | PKD1 inh
Cc1ccccc1NC(=O)/C(C#N)=C\c1ccsc1 | 108 | -44 | 105 | -1.2 | i | 0.93 | -5
O=C(Cn1cnc2c(nnn2-c2ccccc2)c1=O)NCc1ccco1 | 93 | / | / | -0.9 | i | 1 | -12
CC(C)NS(=O)(=O)c1ccc(OCC(=O)Nc2cccc3ccccc23)cc1 | 104 | -42 | 97 | -0.5 | i | 1.1 | -8
CC(C)(C)c1nc2cc(Cl)c([N+](=O)[O-])cc2o1 | 101 | / | / | / | i | 0.94 | 4
COc1ccc(C2=NOC(C(=O)NCc3ccco3)C2)cc1 (stereo not drawn) | 89 | 15 | 87 | -2.1 | i | 0.76 | 3
Cc1ncc([N+](=O)[O-])n1Cc1ccccc1F | 104 | / | / | / | i | 0.85 | -2
O=P(CO)(Cc1ccccc1)Cc1ccccc1 | 101 | 6 | 92 | -1.9 | i | 0.9 | -8
CCN(CCO)C(=O)CC(c1ccccc1)c1cc(Br)ccc1O (stereo not drawn) | 103 | -60 | 113 | -1.7 | i | 0.91 | -6
CC(=O)N1N=C(c2ccccc2)CC1c1cn(C)c2ccccc12 (stereo not drawn) | 97 | -32 | 95 | -0.5 | i | 1.1 | -5
CN(C(=O)COC(=O)c1cc(Br)c(Br)s1)C1CCS(=O)(=O)C1 (stereo not drawn) | 91 | -21 | 88 | -1.1 | i | 1.1 | -2
C=CCOc1ccc2oc(=O)cc(C)c2c1 | 110 | -33 | 128 | 0.6 | / | / | 0
CC1(C)C2CCC1(C)C(OCC[N+](C)(C)CC(=O)OC1CCCCC1)C2 (stereo not drawn) | 106 | 23 | 79 | 0.5 | i | 0.83 | -7
COc1ccc(C(=O)Cc2cc(OC)c(OC)cc2[N+](=O)[O-])c(OC)c1 | 103 | / | / | -2.8 | i | 0.99 | -9
CCOCc1c(C(=O)NC2CCCCCC2)oc2ccccc12 | 97 | / | / | / | i | 0.98 | 1
CN(Cc1ccccn1)Cc1nc(Cc2ccccc2Cl)no1 | 94 | / | / | / | i | 0.97 | 1
COc1cccc(/C=C/C(=O)OCC(=O)Nc2cccc(S(=O)(=O)N(C)C)c2)c1 | 85 | 35 | 103 | / | i | 1 | 9
O=C(CCCC(=O)OCC(F)(F)C(F)F)Nc1ccc(NC(=O)CCCC(=O)OCC(F)(F)C(F)F)cc1 | 98 | -49 | 114 | -2.2 | i | 0.77 | -3
Cc1ccccc1NCc1nnc2n1CCCCC2 | 90 | / | / | / | i | 1 | 1
N#C/C(=C\c1ccc(C(=O)O)cc1)c1ccccn1 | 96 | 56 | 121 | / | i | 0.96 | -11
COc1cc(CNCCc2ccc(S(N)(=O)=O)cc2)ccc1OCC(=O)N1CCCCC1 | 111 | / | / | -0.5 | i | 0.94 | -8
Nc1nnnn1/N=C/c1cccs1 | 106 | / | / | 0.5 | i | 0.94 | 1
CCOC(=O)c1c(C)nc(C)c(C(=O)OCC)c1-c1cccnc1 | 96 | / | / | / | i | 1.2 | /
COc1ccc(F)cc1S(=O)(=O)NC1CCCCCC1 | 98 | -1 | 100 | -0.9 | / | / | -8
CCC(C)NC(=S)Nc1ccccc1OC (stereo not drawn) | 106 | 38 | 109 | 0.5 | i | 1.1 | 7
COc1cc(C)cc(C(=O)O)c1C1=C(O)c2cccc(O)c2C(=O)C1=O | 108 | / | / | / | i | 0.92 | /

Of the compounds above, two have a CF3 group.
SMILES | RGS16-Gao | INS promoter inh | INS promoter inh cell count | GALR2 ag | HSV augment | HSV augment primary fold | PKD1 inh
CC1=C(C#N)C(NC(=O)c2ccco2)(C(F)(F)F)C(=O)N1 (stereo not drawn) | 85 | -45 | 106 | -1.2 | i | 0.98 | 4
O=C(CNc1cc(S(=O)(=O)N2CCCC2)ccc1OCC(F)(F)F)Nc1cc(Cl)cc(Cl)c1 | 98 | / | / | / | i | 0.97 | -8

(continued)
SMILES | RGS16-Gao | INS promoter inh | INS promoter inh cell count | GALR2 ag | HSV augment | HSV augment primary fold | PKD1 inh
COc1ccc(NC(=O)CN(Cc2ccccc2)S(C)(=O)=O)cc1 | 105 | 34 | 115 | -2.6 | i | 1.1 | 5
CCOc1ccccc1NC(=O)c1ccc(OCC)c([N+](=O)[O-])c1 | 108 | / | / | -2.0 | i | 1 | 6
N#CC1=C(N)Oc2c(ccc3ccccc23)C1c1ccsc1 (stereo not drawn) | 99 | 14 | 55 | -2.3 | / | / | 0
CCOC(=O)N1CCC(NS(=O)(=O)c2cc3c(cc2C)NC(=O)CO3)CC1 | 104 | / | / | 0.0 | i | 0.9 | 6
COc1ccc(Cl)cc1NC(=O)COC(C)=O | 99 | / | / | / | i | 0.9 | -7
N#Cc1c(N2CCCCC2)nc(N)c2c(N)nc3c(c12)CC(c1ccccc1)O3 (stereo not drawn) | 100 | 9 | 104 | -1.1 | i | 1 | 2
Cn1c(CO)cnc1SCc1ccc(Cl)cc1 | 92 | -7 | 142 | -0.5 | i | 0.98 | 8
CCn1c(-c2cccc(Br)c2)n[nH]c1=S | 99 | -57 | 113 | -2.8 | i | 0.83 | -4
O=C(Cc1csc(Nc2nc(=S)[nH]c3ccccc23)n1)N1CCN(c2cccc(C(F)(F)F)c2)CC1 | 98 | 21 | 56 | / | i | 0.97 | 7
Cc1ccc(C(=O)Nc2cc(-c3ccn[nH]3)c(C)n(N)c2=O)cc1 | 103 | -12 | 73 | / | i | 0.9 | -7
COc1ccccc1N1CCN(C(=O)c2ccc(N3CCCC3=O)cc2)CC1 | 107 | 26 | 65 | -0.8 | i | 1 | -4
O=C(NCCc1c[nH]c2ccccc12)/C(=C\c1ccco1)NC(=O)c1ccco1 | 109 | 0 | 87 | 0.8 | i | 0.94 | -19
CSc1nc(N)cc(=O)[nH]1 | 105 | / | / | / | i | 1.2 | /
CC/C(=N\NC(=O)CSc1ncccn1)c1ccc2c(c1)OCCO2 | 105 | / | / | 0.3 | i | 0.87 | 7
Cn1c2ccccc2c2c(C(=O)NCC3CCCO3)cn(C3CCCC3)c(=O)c21 (stereo not drawn) | 91 | -87 | 114 | -3.0 | i | 0.97 | -15
COc1ccccc1-c1cc(C(=O)Nc2ccccc2SC)no1 | 101 | / | / | -0.8 | i | 0.89 | 10
O=C(CN1CCN(Cc2ccc(F)cc2Cl)C1=O)NCCc1ccc(Cl)cc1 | 89 | -57 | 90 | -1.0 | i | 0.94 | -8
CC1CCCN(C(=O)C23CCC(C)(C(=O)C2)C3(C)C)C1 (stereo not drawn) | 90 | 34 | 184 | -1.5 | i | 0.86 | -7
CCOC(=O)C1(CCOc2ccccc2)CCN(C(=O)c2cncs2)CC1 | 114 | / | / | / | i | 0.95 | -1
Cc1ccnc(N=Cc2c(O)ccc3oc4c(c23)CCCC4)c1 | 104 | -25 | 126 | -1.6 | i | 0.93 | 2
N#CCCN/N=C(/Cc1nc2ccccc2[nH]1)c1ccc(Cl)cc1 | 99 | -19 | 134 | -1.4 | i | 1.1 | 3
C/C=C/C=C\C(=O)Nc1cccc(C2=NOC3(C2)C[C@@H](C(N)=O)N(C(=O)c2cc([N+](=O)[O-])cc([N+](=O)[O-])c2C)C3)c1 (stereo partly drawn) | 103 | / | / | / | i | 0.79 | /
CCN1CCN(CCCNC(=O)c2cc3c(=O)[nH]c4ccccc4c3s2)CC1 | 102 | -27 | 78 | -1.1 | i | 0.96 | -3
O=C(/C=C/c1ccco1)NC(=S)Nc1cccc(-c2nc3ccccc3s2)c1 | / | -9 | 125 | 0.3 | i | 0.94 | 1
CN(c1ccc(OCC(=O)N2CCOCC2)cc1)S(=O)(=O)c1ccc(Cl)cc1 | 100 | 12 | 74 | / | i | 0.92 | 6
COc1cc(CCNc2ccc3nnc(-c4ccccc4)n3n2)cc(OC)c1OC | 91 | 2 | 89 | 0.2 | i | 0.69 | -1
Cc1nnc(SCC(=O)Nc2nsc(-c3ccc(Cl)cc3)n2)s1 | 101 | 17 | 98 | 0.2 | i | 0.94 | -12
CC[N+]1(C)CCC(=C2c3ccccc3CC(=O)c3sccc32)CC1 (stereo not drawn) | 97 | 22 | 112 | -0.7 | i | 0.62 | 9
CC(CCc1ccco1)NC(=O)CSc1cc(=O)n(C)c2ccccc12 (stereo not drawn) | 107 | -36 | 119 | -0.2 | i | 1.1 | -5
CC(c1ccc(Cl)cc1)n1c(-c2ccc3ccccc3n2)n[nH]c1=S (stereo not drawn) | 103 | / | / | -2.0 | i | 1.1 | 7

4 entries picked at random from those above:
SMILES | RGS16-Gao | INS promoter inh | INS promoter inh cell count | GALR2 ag | HSV augment | HSV augment primary fold | PKD1 inh
CCn1c(-c2cccc(Br)c2)n[nH]c1=S | 99 | -57 | 113 | -2.8 | i | 0.83 | -4
CCOC(=O)N1CCC(NS(=O)(=O)c2cc3c(cc2C)NC(=O)CO3)CC1 | 104 | / | / | 0.0 | i | 0.9 | 6
CC(CCc1ccco1)NC(=O)CSc1cc(=O)n(C)c2ccccc12 (stereo not drawn) | 107 | -36 | 119 | -0.2 | i | 1.1 | -5
N#CCCN/N=C(/Cc1nc2ccccc2[nH]1)c1ccc(Cl)cc1 | 99 | -19 | 134 | -1.4 | i | 1.1 | 3
